# High-throughput results from PubChem BioAssay.
# Rce1 inhib: inhibitors of yeast Ras-converting enzyme | Q03530 | yeast membranes, quenched prenylated peptide cleavage fluorescence | calls only | hit rate 0.27% among 290,000;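 active means fall in fluorescence gain of 50% or more versus controls, with final raw signal at or below 3038400; inconclusive means same 50% fall but final raw signal above 3038400; inactive means fall in fluorescence gain under 50%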;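 further: plate controls were neutral control wells for no effect and wells lacking membranes for full effect; tested at 10 µM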
# Target sequence (Q03530 whole entry, looked up): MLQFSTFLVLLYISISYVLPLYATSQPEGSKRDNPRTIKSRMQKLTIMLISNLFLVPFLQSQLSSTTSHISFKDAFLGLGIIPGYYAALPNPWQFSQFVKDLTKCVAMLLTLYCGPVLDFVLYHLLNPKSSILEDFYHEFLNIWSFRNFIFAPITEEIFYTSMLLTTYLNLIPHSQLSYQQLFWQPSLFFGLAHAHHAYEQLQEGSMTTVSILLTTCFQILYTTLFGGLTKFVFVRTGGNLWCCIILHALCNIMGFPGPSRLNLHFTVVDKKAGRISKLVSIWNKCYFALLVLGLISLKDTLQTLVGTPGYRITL
# PABP FP inh: PABP-poly(A) binding inhibition | P11940 | PABP-poly(A) RNA binding, fluorescence polarization | inhibition, % at 35 µM | hit rate 1% among 290,000 | AID 2014;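 active means 50% or more with normal probe brightness, or confirmed in later tests; inconclusive means above 50% with abnormal brightness, or retests that disagree; inactive means below 50% or failed in later tests; about a fifth of its hits are not listed in these tables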;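 further: calls also rest on retests at 20 µM and on dose response follow-up; controls were probe without protein and protein plus probe with vehicle; some compounds called inactive have numbers as strong as hits; many hits fall short of the cut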
# Target sequence (P11940 whole entry, looked up): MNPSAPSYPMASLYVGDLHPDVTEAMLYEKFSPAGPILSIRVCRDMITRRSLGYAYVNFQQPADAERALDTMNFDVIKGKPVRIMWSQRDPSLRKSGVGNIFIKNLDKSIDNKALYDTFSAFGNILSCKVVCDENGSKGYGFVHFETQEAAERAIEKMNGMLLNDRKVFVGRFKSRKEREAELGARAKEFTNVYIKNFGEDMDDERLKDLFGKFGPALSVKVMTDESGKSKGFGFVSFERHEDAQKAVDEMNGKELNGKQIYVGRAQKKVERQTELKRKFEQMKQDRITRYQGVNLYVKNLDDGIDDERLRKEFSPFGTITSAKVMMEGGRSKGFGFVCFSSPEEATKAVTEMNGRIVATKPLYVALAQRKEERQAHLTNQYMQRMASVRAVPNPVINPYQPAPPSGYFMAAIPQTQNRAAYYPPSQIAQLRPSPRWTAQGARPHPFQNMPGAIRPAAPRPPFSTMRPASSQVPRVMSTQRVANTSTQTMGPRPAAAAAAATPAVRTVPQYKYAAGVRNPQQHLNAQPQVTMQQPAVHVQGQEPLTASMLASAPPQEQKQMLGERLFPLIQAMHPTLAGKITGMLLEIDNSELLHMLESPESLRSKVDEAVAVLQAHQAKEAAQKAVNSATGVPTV
# Env fusion inh: HIV envelope-mediated fusion inhibition | inhibition, % at 12.3 µM | hit rate 1.1% among 360,000 | HeLa-JRFL Env/CEM21 cell fusion, luciferase | AID 651610;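 active means mean replicate inhibition score of at least 50 and every replicate individually at or above 50; inconclusive means only one of the two criteria met; inactive means mean below 50 and not all replicates reaching 50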;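 further: 0% = plate neutral controls and 100% = maraviroc near 300 nM; one replicate is shown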
# UUG fidelity: alters start codon recognition fidelity in yeast; AID 602363; hit rate 0.13% among 350,000; activity score, % at 18.7 µM; S. cerevisiae UUG-firefly luciferase reporter, luminescence/redox ratio;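 active means replicate mean at a twofold rise or more, about +100% in these data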;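 further: firefly luciferase made from a UUG start codon reports start codon fidelity; reporter light over untreated wells divided by growth signal over untreated wells; some hits fall short of that in this replicate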
# CSC inhib: cancer stem cell inhibition; inhibition, % at 7.5 µM; hit rate 1.1% among 300,000; cancer stem cell-like cells viability, luminescence;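 active means mean at 75% or more and at least half the replicates too; inconclusive means mean and replicates disagree; tested in HMLE shEcad cells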;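 further: 0% = median of negative and 100% = median of positive control wells; the first replicate is given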
# eIF4H FP inh: inhibitors of RNA binding by human eIF4H | Q15056 | eIF4H fluorescence polarization binding assay | inhibition, % at 35 µM | hit rate 0.94% among 290,000 | AID 2012;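 active means 50% or more with normal probe brightness, or confirmed in later tests; inconclusive means above 50% with abnormal brightness, or retests that disagree; inactive means below 50% or failed in later tests; about a fifth of its hits are not listed in these tables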;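 further: calls also rest on retests at 20 µM and on dose response follow-up; 0% = protein and probe with vehicle and 100% = probe without protein; strong numbers were not always called active; many hits fall short of the cut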
# MT1-MMP act inh: blocks activation of human MT1-MMP; GFP/RFP ratio change, % at 20 µM; HT1080 RFP-PRO-GFP cells, GFP/RFP ratio fluorescence, overnight; percent of plate control window, DMSO zero; hit rate 0.061% among 360,000;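 active means GFP/RFP ratio change of at least 30% with cell ATP level not reduced by more than half and red fluorescence within 50% of control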; further: strong numbers were not always called active
#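 Assay system – RFP-PRO-GFP reporter HT1080 cells · Compound dosing – single dose of 20 µM compound, 1% DMSO final · Incubation – overnight compound exposure at 37 °C · Measure – GFP/RFP fluorescence ratio · Benchmarks – DMSO wells and RFP-L50D-GFP cells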
# MT1-MMP act inh RFP: further read-out of MT1-MMP act inh, marked with its call; RFP signal change, %; measured here: RFP expression control read;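 0 = vehicle wells; hits needed this value within 50% of zero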
# * = called active by the depositor; i = inactive; ? = inconclusive; . = no result given. Not a hit list; any-hit rate near 2.9%.
# Screens in order – Rce1 inhib	PABP FP inh	Env fusion inh	UUG fidelity	CSC inhib	eIF4H FP inh	MT1-MMP act inh	MT1-MMP act inh RFP
O=C(O)C1CCCCC1C(=O)Nc1ccccc1Cl (stereo unspecified)
    i	2	-92	-14	-6	5	-2	3
Cc1ccnc(NS(=O)(=O)c2ccc(NC(=O)c3snnc3C)cc2)n1
    i	-1	0	-9	0	-7	-2	5
C=CC(=O)NCCCc1cc(C(C)(C)C)c(O)c(C(C)(C)C)c1
    i	4	-6	-16	-2	1	-3	-2
O=C(Nc1ccc(NS(=O)(=O)c2ccccc2)c(Cl)c1)c1ccccc1
    .	.	-2	-8	.	.	2	-4
Cc1c(C#N)c(N)nc2c3c(sc12)NC(=O)CC3c1ccccc1 (stereo unspecified)
    i	9	15	-16	13	2	12	3
N#C/C(=C\c1cc2c(cc1Br)OCO2)C(=O)NCC1CCCO1 (stereo unspecified)
    i	8	-24	.	-9	-8	0	5
COc1cc(CCCN2C(=S)NC[C@@H]2Cc2ccccc2)cc(OC)c1OC
    i	-1	-11	-37	-10	-8	3	-5
Cc1[nH]c2ccc(OCc3ccccc3)cc2c1CCN1C(=O)OC(C)(C)C1(C)O (stereo unspecified)
    i	-8	-27	-10	-9	1	3	1
Cc1ccc(S(=O)(=O)Nc2ccc3ncccc3c2)cc1
    i	-3	61*	-20	-16	0	-1	-19
CCN(CC)S(=O)(=O)c1ccc(/C=C/C(=O)OCC(=O)Nc2ccc(C(N)=O)cc2)cc1
    i	18	2	.	-10	2	3	4
Cc1noc(C)c1C(=O)OCC(=O)c1cc(C)n(Cc2ccccc2Cl)c1C
    i	2	21	-8	-16	2	7	6
O=C(NNC(=O)c1ccc2ccccc2c1O)Nc1ccc(F)cc1
    i	-3	4	-20	2	-4	0	4
COc1ccc(-c2ccc(C(=O)NCCN3CCOCC3)c3occc23)c(C)c1
    .	.	19	-8	.	.	0	-5
Cc1nc2ccccn2c(=O)c1NC(=O)c1cccs1
    i	.	-21	12	-13	.	-10	0
CCOc1ccc(C2/C(=C(/O)c3ccc(F)cc3)C(=O)C(=O)N2CCCN(C)C)cc1 (stereo unspecified)
    i	5	.	-14	-10	-2	0	2
CCCOc1ccc(F)cc1-c1cc(C(=O)Nc2ccc(OC)cc2OC)[nH]n1
    .	.	8	-1	.	.	-6	-4
Cc1cc(F)ccc1S(=O)(=O)N1CCCOC1CNC(=O)C(=O)NCCc1ccco1 (stereo unspecified)
    .	.	-11	-16	.	.	1	2
CC(Sc1ccc(S(=O)(=O)N2CCOCC2)cc1[N+](=O)[O-])C(=O)O (stereo unspecified)
    i	-3	-11	.	-17	6	0	5
CC(C)(C#CC(O)(c1ccccc1)c1ccccc1)N1CCCC1
    i	3	23	.	-9	3	0	-2
O=C(Cc1ccccc1)N/N=C/c1ccccn1
    i	.	-12	-14	5	.	6	4
COC(=O)CN1C(c2cccc(Cl)c2)=Nc2ccc(Cl)cc2C1c1ccccc1 (stereo unspecified)
    i	4	56*	.	12	-2	-42	-27
COCCn1c(SCC(=O)Nc2ncc(C)s2)nc2sc3c(c2c1=O)CCC3
    i	-12	.	.	.	3	.	.
OC[C@@H]1CN(Cc2cccc(C(F)(F)F)c2)C[C@H](n2cnc3c(NCc4ccc(F)cc4)ncnc32)O1
    .	.	-17	-9	.	.	0	-21
CCn1c(NC(=S)Nc2ccccc2)nc2ccccc21
    i	-3	i	-32	13	10	10	3
CC1(Cc2ccc(C(F)(F)F)o2)C(=O)Nc2ccc(-c3cccc(C(F)(F)F)c3)cc21 (stereo unspecified)
    .	.	26	-6	.	.	-1	-3
Cn1c(=O)c(NCCO)c2c3c(cccc31)C(=O)c1ccccc1-2
    i	?	.	-28	5	?	-186	3
CC(c1ccc(C(C)(C)C)cc1)S(=O)CC(O)CO (stereo unspecified)
    i	4	21	.	-8	-3	1	3
O=C(CCl)Nc1ccc(S(=O)(=O)Nc2nccs2)cc1
    i	-2	-10	1	10	8	4	4
COC(=O)CCc1c(C)nn(-c2ccccc2)c1C
    i	-6	.	5	-6	-13	1	4
O=C(NCCc1ccc(Cl)cc1)c1cc(S(=O)(=O)N2CCCCC2)c[nH]1
    i	-2	.	5	4	0	3	-10
C=CCn1c(N(C)C)nc2c1c(=O)[nH]c(=O)n2C
    i	10	2	-2	-6	-6	2	6
O=C(CSc1nnc(-c2ccncc2)o1)Nc1cc(Cl)ccc1C(=O)O
    .	.	7	-14	-7	.	1	6
Cc1ccc(S(=O)(=O)CCC(=O)OCC(=O)Nc2sccc2C#N)cc1
    .	.	0	-29	.	.	0	3
CCOC(=O)[C@@H]1[C@H]2COc3cc(OC)ccc3[C@H]2N2C(=O)N(c3ccc(C(F)(F)F)cc3)C(=O)[C@]12C
    .	.	109*	-11	102*	.	-1	-12
c1cc2c3c(cccc3c1)NC1(CCCCC1)N2
    i	29	.	-11	.	33	6	-2
CCN1C(=O)[C@H]2[C@@H](c3ccc(-c4cccc(Cl)c4)c(OC)c3)N[C@@](C)(C(=O)OC)[C@H]2C1=O
    i	.	-25	0	-5	.	0	-3
CCN1CCN(C2CCCCC2NS(=O)(=O)c2ccccc2)CC1 (stereo unspecified)
    i	1	-1	0	2	-3	-3	2
CCc1[nH]nc2c1C(C(C)C)C(C#N)=C(N)O2 (stereo unspecified)
    i	1	-110	-8	-3	3	-10	-12
COC(=O)[C@H](Cc1ccccc1)NC(=O)C1CCN(C(=O)[C@H](C)NS(=O)(=O)c2ccc(C)cc2)CC1
    i	-11	-4	6	-16	-6	0	2
COc1ccccc1-n1c(COc2ccccc2-c2ccccc2)nnc1SCC(=O)c1c(N)n(C)c(=O)n(C)c1=O
    i	6	4	.	-18	5	0	2
CN(C)Cc1c(O)ccc2c(=O)c(-c3ccc(Cl)cc3)coc12
    .	-8	-19	-16	-7	-9	6	3
O=C(Nc1ccc(Cl)cc1)NC1CCCC1Cc1ccco1 (stereo unspecified)
    i	-2	.	0	15	-5	-10	-4
CN(C(=O)C1CCCO1)c1nnc(-c2cnccn2)s1 (stereo unspecified)
    i	-8	-17	-41	5	-7	1	9
O=C(Cn1c(=O)oc2ccccc21)Nc1nnc(N2CCCCCC2)s1
    i	5	8	-17	-7	-3	1	1
Cc1cc(CNC(=O)[C@H]2C[C@@H]2[C@H](NP(=O)(c2ccccc2)c2ccccc2)c2ccccc2)nn1C
    .	-14	8	.	2	-8	.	.
CCOC(=O)Nc1ccc(S(=O)(=O)Nc2nc(C)cc(C)n2)cc1
    i	-4	.	-17	0	-9	2	-2
Cc1ccccc1CN(c1ccc(C(=O)N2CCc3ccccc3C2)cc1)S(C)(=O)=O
    i	-10	20	-3	6	-6	-5	-15
O=c1c2[nH]c3ccc(F)cc3c2ncn1C1CCCCC1
    i	-5	.	-7	24	9	-2	-1
Cc1ccc(-c2nn(-c3ccc(F)cc3)cc2C(=O)NCCCN2CCCC2=O)cc1
    .	.	-10	-2	.	.	3	3
COCCCNC(=O)c1cc(=O)n(Cc2ccc(Cl)cc2)c2ccccc12
    i	0	22	.	-6	48	2	-3
CCN(CC(=O)Nc1c(F)cccc1F)C(=O)c1ccc(Sc2nncn2C)c([N+](=O)[O-])c1
    i	.	-7	-19	-5	.	6	8
C/C(=N\NC(=O)c1cccnc1)c1ccc(-c2ccccc2)cc1
    i	2	-27	38	-11	6	15	9
O=C(NCCSc1c[nH]c2ccccc12)c1c(F)cccc1F
    i	12	3	19	2	8	-1	0
Cc1[nH]n(C)c(=O)c1[N+](=O)[O-]
    i	1	-2	.	-4	12	3	3
CCN(CC)S(=O)(=O)c1ccc(N2CCOCC2)c(NC(=O)c2ccc(N3CCCC3=O)cc2)c1
    i	.	17	7	-6	.	5	-2
CC1(C)C/C(=C(/C#N)C(N)=O)CCO1
    i	7	.	-7	-5	-5	-3	1
CCOc1ccc(C(=O)OC(C)CN2CCCCC2)cc1 (stereo unspecified)
    i	0	-16	-15	-5	-14	-1	1
Cc1cc(-c2nnc(SCC(=O)Nc3ccc(C(F)(F)F)cc3)n2C)no1
    i	-10	12	-34	-8	-10	5	-5
COc1ccc(NC(=O)Cc2nnc(SCC(=O)Nc3cc(C)ccc3OC)n2C)cc1
    i	-3	.	-13	-14	-2	3	6
Cc1cc(NC(=O)CSc2nnc(COc3cccc(C)c3C)n2C)no1
    i	-3	-67	-3	3	-5	3	1

# (further entries)
# Screens in order – Rce1 inhib	PABP FP inh	Env fusion inh	UUG fidelity	CSC inhib	eIF4H FP inh	MT1-MMP act inh	MT1-MMP act inh RFP
CCOC(=O)c1c2ccc(OCC(=O)N/N=C/c3ccc(C)cc3)cc2n2ccccc12
    i	3	.	.	114*	7	-7	3
CCOC(=O)c1csc(NC(=O)c2ccc(S(=O)(=O)N(CC)CC)cc2)n1
    i	1	19	.	-9	4	-4	-20
NC(=O)c1ccc(C(F)(F)F)n(Cc2cccc(Cl)c2)c1=O
    i	10	?	-11	6	6	1	-2
Cc1ccc(NC(=O)Cn2nc(C)c3ccccc3c2=O)c(C)c1
    i	-6	19	-10	-13	-4	0	-1
CCN1CCN(c2c(Cl)cccc2NC(=O)c2ccco2)CC1
    i	-5	.	-15	-2	-2	5	4
CCOC(=O)c1nnn(-c2nonc2N)c1-c1ccc(Cl)cc1
    i	-5	-4	.	-10	1	4	-2
O=C(Nc1ccc(Cl)c(S(=O)(=O)Nc2ccccc2Cl)c1)c1cccs1
    i	2	-9	-5	22	-6	-1	-12
COc1cccc(/C=N/n2c(SC)nnc2-c2ccccc2)c1OC
    i	4	.	-10	14	-5	1	0
CCn1c(=S)sc2c(=O)n(CC(=O)Nc3ccc(OC)c(Cl)c3)c(C)nc21
    i	-2	1	-5	0	-15	6	0
CCN(CC)C(=O)N1CCN(C)CC1
    i	-1	-18	3	-11	17	4	6
O=C1CC(c2cccc([N+](=O)[O-])c2)c2c(ccc3ccccc23)N1 (stereo unspecified)
    .	9	.	-10	.	9	-11	-18
Cc1nc2ccc(NC(=O)CS(=O)(=O)c3ccccc3)cc2s1
    i	.	-83	-19	-20	.	-1	3
Cc1cc(C)n2nc(-c3ccc(F)cc3)nc2n1
    i	1	.	-12	-5	9	0	1
CCN(CC(=O)NCc1ccc(Cl)cc1)C(=O)c1cccc(S(=O)(=O)Nc2ccc(OC)cc2)c1
    i	.	8	.	-14	.	2	1
Cc1cccc(N2CC(C(=O)Nc3nnc(SCCN4CCOCC4)s3)CC2=O)c1 (stereo unspecified)
    i	1	-17	-11	0	17	-7	3
Cc1ccc(OCc2nc(-c3ccc(Cl)cc3)n[nH]2)cc1
    i	-9	-68	.	15	-16	10	-1
CC(=O)Nc1ccc(NC(=O)C(C)Sc2n[nH]c(=O)n2Cc2ccccc2)cc1 (stereo unspecified)
    i	5	9	-28	0	-4	2	-3
O=C(Nc1ccc(Nc2ccncc2)cc1)c1ccc(Nc2ccnc3ccc([N+](=O)[O-])cc23)cc1[N+](=O)[O-]
    i	33	2	.	27	-16	-2	1
